GALR2 ag: agonists of human galanin receptor 2 (GALR2); GALR2-expressing cells, agonist activation read-out; activation, %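 (tested at 5 µM)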; hit rate 0.48% among 140,000; AID 803;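 active = above mean plus 3 SD of all compounds, about 5% in these data, not always enough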;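 note: 0% = vehicle buffer wells and 100% = reference agonist at full effect; tested in CHO reporter cells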
RGS16-Gao: modulates binding between human RGS16 and Galphao; bead-based flow cytometry RGS16-Galphao binding, fluorescence; actives lie on both sides; binding response (% of control), % at 10 µM; hit rate 0.38% among 220,000; O15492+P09471;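 active = below 25% or above 175%, edge rows of some plates excepted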;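 note: Galphao activated by GDP with aluminum fluoride before binding; 100% = wells without compound and 0% = beads without RGS; some results beyond the cut were filed as inactive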
PKD1 inh: blocks activity of human protein kinase D1; inhibition, %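 (about 10 µM by stock and volumes)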; PKD1 kinase fluorescence polarization assay; hit rate 0.056% among 200,000; AID 797; Q15139;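 active = inhibition of 50% or more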;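 note: controls were vehicle for no effect and a reference inhibitor for full effect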
Target sequence (Q15139 whole entry, looked up): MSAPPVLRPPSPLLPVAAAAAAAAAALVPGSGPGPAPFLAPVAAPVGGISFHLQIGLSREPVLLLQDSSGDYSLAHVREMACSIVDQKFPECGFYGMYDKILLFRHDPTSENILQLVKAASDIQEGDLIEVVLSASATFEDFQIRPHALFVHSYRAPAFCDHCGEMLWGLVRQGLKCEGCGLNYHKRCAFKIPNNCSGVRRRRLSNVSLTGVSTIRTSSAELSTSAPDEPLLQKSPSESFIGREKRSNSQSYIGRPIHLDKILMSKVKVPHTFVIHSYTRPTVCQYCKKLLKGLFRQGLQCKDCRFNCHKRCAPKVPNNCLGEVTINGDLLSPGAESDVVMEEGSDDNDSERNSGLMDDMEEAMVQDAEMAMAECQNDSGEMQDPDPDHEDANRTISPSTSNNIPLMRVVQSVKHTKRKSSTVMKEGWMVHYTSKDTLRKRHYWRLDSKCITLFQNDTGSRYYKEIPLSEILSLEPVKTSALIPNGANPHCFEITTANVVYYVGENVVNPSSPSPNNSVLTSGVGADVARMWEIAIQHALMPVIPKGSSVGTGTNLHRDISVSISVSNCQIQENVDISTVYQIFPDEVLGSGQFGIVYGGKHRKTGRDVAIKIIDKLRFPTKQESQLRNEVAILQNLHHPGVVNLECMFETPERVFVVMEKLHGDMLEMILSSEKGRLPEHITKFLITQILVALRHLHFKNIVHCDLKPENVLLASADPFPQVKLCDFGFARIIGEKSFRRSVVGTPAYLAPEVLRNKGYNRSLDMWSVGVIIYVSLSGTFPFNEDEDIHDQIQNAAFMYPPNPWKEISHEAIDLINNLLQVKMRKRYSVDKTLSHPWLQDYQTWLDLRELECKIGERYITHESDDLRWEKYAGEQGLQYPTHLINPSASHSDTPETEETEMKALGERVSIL
HSV replic up: increases HSV replication in cells; maximum fold increase; AID 1956; HSV replication augmentation in cells, fold increase; hit rate 0.005% among 220,000;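 active = peak rise of 1.5-fold or more in the series; inconclusive = self-fluorescent or not available for retest; tested in PC3 cells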;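 note: first round at 10 µM; read as green reporter fluorescence; hits show the peak of a series up to 25 µM; 1 = signal of infected wells without compound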
INS promoter inh: TRM-6 insulin promoter activity inhibition; hit rate 0.9% among 130,000; AID 1273; TRM-6 cells (human fetal islet line), insulin promoter-eGFP reporter, imaging; reporter expression induced with tamoxifen; inhibition, % at 2 µM;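 active = inhibition above the mean plus 3 SD, with well images judged a real hit on visual review, cut at about 60% in these data, passing the limit was not always enough; inconclusive = inhibition over the cutoff but images rejected on review; inactive = inhibition not above the cutoff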
INS promoter inh cell count: further read-out of INS promoter inh, marked with its call; normalized cell count, %; measured here: cell count, toxicity; reference of the scale not given here;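 cells exposed to compound for 48 h; stained nuclei by imaging scaled within each plate; lower means fewer cells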
HSV replic up primary fold: recorded beside HSV replic up, whose call it bears; fold increase; compound at 10 µM; measured here: primary screen fold increase 10 uM; tested in PC3 cells;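 GFP signal in the first replicate; 1 = infected wells without compound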
* marks the source's active call; other numbers are inactive results; i = inactive; ? = inconclusive; / = no result given.

SMILES	GALR2 ag	RGS16-Gao	PKD1 inh	HSV replic up	HSV replic up primary fold	INS promoter inh	INS promoter inh cell count
O=C(/C=C/c1cc2c(cc1Br)OCO2)NCc1ccc(F)cc1	-1.5	96	1	i	0.9	23	88
COCCOC(=O)c1c(C)oc2ccc(NS(=O)(=O)c3cccs3)cc12	/	101	-1	i	0.96	4	135
Nc1ncnc2c1ncn2Cc1ccccc1	/	95	6	i	0.91	0	115
CCc1ccc(NC(=S)/N=C(\N)Nc2nc(C)c3cc(CC)ccc3n2)cc1	/	114	-1	i	0.87	/	/
S=C(Nc1cccc(Br)c1)c1ccccc1	-1.7	98	-5	i	0.94	42	95
Cc1c(C(=O)NCCO)sc2nc3n(c(=O)c12)CCC3	/	100	1	i	1.2	/	/
COC(=O)c1ccc(CN2C(=O)NC3(CCCCC3C)C2=O)o1 (stereo not drawn)	-2.1	104	-2	i	0.9	-7	101
Cc1cc(C)n(-c2nc(Nc3ccccc3)nc(-n3nc(C)cc3C)n2)n1	-2.1	92	-12	i	1	6	128
CNC(=O)c1cc2ccccc2o1	-2.3	103	-12	i	0.93	-13	91
CCC(C)(C)NC(=O)C(c1ccc(C)cc1)N(CCN1CCOCC1)C(=O)CNC(=O)c1cccs1 (stereo not drawn)	/	101	-5	i	0.88	-29	96
CCN1CCN(c2nc3c(c(=O)n(C)c(=O)n3C)n2CCSc2nccc(C)n2)CC1	-1.1	101	-7	i	0.82	/	/
Cc1ccc(C(=O)NCc2ccco2)cc1S(=O)(=O)N1CCOCC1	-1.6	81	-5	i	0.98	-5	77
CCOC(=O)C1(Cc2cccc(F)c2)CCN(C(=O)C2CCC2)CC1	/	109	-11	i	1	/	/
O=C(O)CCn1[nH]c(=O)ccc1=O	-1.0	130	4	i	1.1	-9	57
O=C(CCC(=O)NNc1nc2ccccc2c2nc(-c3ccccc3)nn12)NCCCN1CCCC1=O	/	98	-1	i	1	/	/
COCCn1c(Cc2ccccc2)nnc1SCc1nc2ccccc2c(=O)[nH]1	-1.9	95	-9	i	0.96	0	87
COc1ccc(CCNC(=O)COC(=O)c2ccc(N3CCCC3=O)cc2)cc1	/	66	0	i	0.99	-29	70
Nc1nc(SCc2ccc3c(c2)OCO3)n[nH]1	-1.1	84	-2	i	0.93	46	148
CC12CCC(C(=O)Nc3cc(F)ccc3F)(CC1=O)C2(C)C (stereo not drawn)	/	105	-1	i	0.86	/	/
Cc1cc2nc(CS(=O)(=O)c3ccccc3)cc(=O)n2[nH]1	/	107	0	i	0.9	/	/
C=CCNC(=S)N/N=C/c1ccc(-c2ccc(Br)cc2)o1	0.0	99	1	i	0.93	-11	66
CN(C)/C=N/S(=O)(=O)c1cccn1-c1ncc(C(F)(F)F)cc1Cl	/	102	1	i	0.87	-18	119
Cc1ccc2nc(/C(C#N)=C/c3cn[nH]c3-c3ccc(F)cc3)[nH]c2c1	1.4	96	7	i	0.73	-3	40
Nc1cc2c(cc1C(=O)c1ccccc1F)OCCO2	/	91	-2	i	0.98	/	/
COc1ccc(C(=O)NN2C(=O)C3C4C=CC(O4)C3C2=O)cc1 (stereo not drawn)	0.3	98	-4	i	0.91	/	/
Cc1ccc(Nc2nc3nonc3[nH]c2=O)cc1	-1.3	99	-7	i	0.87	18	115
CC(NS(C)(=O)=O)C(c1cccs1)N1CCN(c2ccccc2)CC1 (stereo not drawn)	-1.2	107	-11	i	1.1	-333	50
O=C(c1ccco1)N1CCN(C(c2ccc(Cl)cc2)c2nnnn2Cc2ccccc2)CC1 (stereo not drawn)	0.2	107	5	i	0.88	-7	275
Cc1ccc(NC(=O)CSc2ncccc2C(=O)Oc2cccc([N+](=O)[O-])c2)cc1Cl	-2.3	105	-9	i	1.1	15	64
COc1ccc(/C=N/n2c(-c3n[nH]c4c3CCC4)n[nH]c2=S)cc1	/	99	/	i	0.84	/	/
Cc1ccc(S(=O)(=O)N(Cc2ccc(Cl)cc2)c2ccccc2C(=O)NCc2ccco2)cc1	-0.8	104	-2	i	0.92	/	/
CC1=NCCN1S(=O)(=O)c1ccc(Br)c(C)c1	-1.3	102	-15	i	0.9	-43	123
CCC(=O)Nc1nc2c(OC)ccc(OC)c2s1	-1.4	96	0	i	0.91	/	/
Cc1cccc(C(=O)OC(C)CN2CCN(C)CC2)c1 (stereo not drawn)	/	97	1	i	0.61	/	/
Cc1c(NC(=O)CSc2nc3ccccc3s2)c(=O)n(-c2ccccc2)n1C	-2.8	93	-2	i	1	-46	101
CS(=O)(=O)N1CCN(c2ccc([N+](=O)[O-])cc2F)CC1	/	100	-4	i	0.94	33	65
CC1CCCCC1NC(=O)c1ccc2c(c1)[nH]c(=O)n2C1CCCC1 (stereo not drawn)	-3.8	100	-14	i	0.97	/	/
O=C(CSc1nnc(CNc2ccccc2)o1)c1ccc2c(c1)OCCO2	-3.5	102	-12	i	0.61	-30	104
CCOC(=O)c1cc(-c2ccc(N)cc2)sc1N	-1.5	103	0	i	0.74	5	189
O=C1NC(c2ccccc2Cl)Nc2ccccc21 (stereo not drawn)	-1.0	101	-3	i	1.1	24	102
CCOC(=O)c1cc(CC)sc1N1C(=O)CC(Sc2ccccc2C(=O)O)C1=O (stereo not drawn)	/	101	-4	i	1.1	/	/
COC(=O)Cc1c(C)c2c(OCc3nn[nH]n3)cc(C)cc2oc1=O	0.1	98	-4	i	0.76	/	/
Cc1nc2c(C(F)(F)F)cccc2c2c1CCS2	/	88	1	i	1	/	/
C/C(=N/OCO/N=C(\C)c1ccccc1F)c1ccccc1F	0.8	104	-1	i	1.1	18	156
O=C(Nc1ncccc1Cl)C(Sc1ccccc1)c1ccccc1 (stereo not drawn)	-2.6	107	-12	i	0.67	/	/

Profiles, quoted from the list.
Cc1ccc(S(=O)(=O)N(Cc2ccc(Cl)cc2)c2ccccc2C(=O)NCc2ccco2)cc1 as listed: GALR2 ag: -0.8; RGS16-Gao: 104; PKD1 inh: -2; HSV replic up: i; HSV replic up primary fold: 0.92; INS promoter inh: /; INS promoter inh cell count: /
O=C(CSc1nnc(CNc2ccccc2)o1)c1ccc2c(c1)OCCO2 as listed: GALR2 ag: -3.5; RGS16-Gao: 102; PKD1 inh: -12; HSV replic up: i; HSV replic up primary fold: 0.61; INS promoter inh: -30; INS promoter inh cell count: 104

(cont.)
SMILES	GALR2 ag	RGS16-Gao	PKD1 inh	HSV replic up	HSV replic up primary fold	INS promoter inh	INS promoter inh cell count
CCOC(=O)CSc1nnc(C)n1N	-1.1	110	-3	i	0.84	-12	89
C/C(=N\NC(=O)c1ccccc1[N+](=O)[O-])c1c(O)cc(C)oc1=O	-0.5	98	-6	i	0.98	24	145
O=S(=O)(c1ccc2c(c1)OCCCO2)N1CCNCC1	-2.9	106	-3	i	0.97	/	/
Cc1ccc(NC(=O)CSc2nnc(-c3ccccc3C)o2)cc1C	-4.1	102	2	i	1	/	/
CCOc1ccccc1C1C(C(N)=O)=C(C)Nc2nc(-c3cccc(C)c3)nn21 (stereo not drawn)	-0.7	123	2	i	0.9	/	/
Cc1ccsc1/C=C1/NC(=O)N(Cc2ccc(F)cc2)C1=O	/	104	-3	i	0.99	/	/
CC(C)OCCCNC(=O)C(=O)N/N=C/c1ccc(OCc2ccccc2)cc1	/	100	/	i	0.96	/	/
CCCn1c(SCC(=O)N2CCCc3ccccc32)nnc1-c1ccccn1	-0.1	70	6	/	/	/	/
FC(F)(F)c1nnc2ccc(NCc3ccccc3)nn12	/	98	-6	i	1	-67	58
Cc1ccccc1C(NC(N)=O)c1ccccc1 (stereo not drawn)	0.0	102	-4	i	1	-3	75
COc1ccc(CNc2oc(COc3ccccc3Cl)nc2C#N)cc1	-1.5	98	2	i	0.78	0	105
N#CC(c1nc2ccccc2nc1N1CCCC1)S(=O)(=O)c1cccs1 (stereo not drawn)	-0.7	70	3	i	1	-6	115
O=C(O)c1cccc(COc2ccc(CO)cc2Cl)c1	/	96	/	i	1	/	/
O=C1CSC(c2ccc([N+](=O)[O-])cc2)N1C1CCCCC1 (stereo not drawn)	/	103	1	i	0.97	12	119
CNC(=S)NNC(=O)c1oc2nc(-c3ccccc3)cc(C)c2c1N	/	98	/	i	0.99	/	/
O=C1c2cccc3c(N4CCCCC4)ccc(c23)C(=O)N1c1ccc(O)cc1	/	99	-5	?	/	/	/
CCOC(=O)CSc1nc(N)c(C#N)c(CC(C)C)c1C#N	-2.1	97	3	i	0.87	/	/
Cc1cc(=O)oc2c(CN3CCC(C)CC3)c(O)c(Cl)cc12	6.3	98	-4	i	0.96	21	84
Cc1cc(-c2nnc(SCC(=O)c3ccc(Cl)cc3)o2)no1	-0.1	98	-1	i	1	14	93
CCCCn1nnc(NC(=O)c2ccc(-c3cccc(Cl)c3)o2)n1	-1.5	108	-5	i	1.1	0	106
O=C(NC1CCCCC1)C(c1ccc(F)cc1)N(Cc1cccs1)C(=O)CN1C(=O)c2ccccc2S1(=O)=O (stereo not drawn)	0.7	104	-2	i	0.88	-17	127
O=C(O)/C=C/C(=O)N(CC1CCCO1)C1CC(=O)N(c2c(Cl)cccc2Cl)C1=O (stereo not drawn)	/	81	/	i	0.92	/	/
CN1C(=O)/C(=C/c2ccccc2OCc2cccc(F)c2)N(C)C1=S	-2.0	/	-11	i	0.84	-5	108
Oc1ccc(C=NC2CCCCC2)cc1	/	94	/	i	0.79	/	/
CCN(CCCNS(=O)(=O)c1ccc2c(c1)oc(=O)n2C)c1cccc(C)c1	-1.1	96	1	i	1.1	-140	84
CCC(=O)OCc1c(C(F)(F)F)nn(C)c1Sc1ccc(Cl)cc1	-0.7	102	-7	i	0.86	27	110
Cc1ccsc1/C=C1\CCC(C2CCCC2)C1=O (stereo not drawn)	/	102	8	i	1	-43	125
O=C(Nc1nc(-c2ccc(Cl)s2)cs1)c1ccco1	/	98	-1	i	0.9	/	/
CCCCCCCC1CC(CSC(=N)N)OC1=O (stereo not drawn)	-1.5	103	-2	i	0.77	31	90
COC(=O)c1c(NC(=O)C2C3CCC(C3)C2C(=O)O)sc2c1CCCCC2 (stereo not drawn)	/	98	79*	i	1	33	89

A second format for part of the listing above:
| smiles | GALR2 ag | RGS16-Gao | PKD1 inh | HSV replic up | HSV replic up primary fold | INS promoter inh | INS promoter inh cell count |
| --- | --- | --- | --- | --- | --- | --- | --- |
| CC(C)OCCCNC(=O)C(=O)N/N=C/c1ccc(OCc2ccccc2)cc1 | / | 100 | / | i | 0.96 | / | / |
| CCN(CCCNS(=O)(=O)c1ccc2c(c1)oc(=O)n2C)c1cccc(C)c1 | -1.1 | 96 | 1 | i | 1.1 | -140 | 84 |
| CCc1ccc(NC(=S)/N=C(\N)Nc2nc(C)c3cc(CC)ccc3n2)cc1 | / | 114 | -1 | i | 0.87 | / | / |
| Cc1ccccc1C(NC(N)=O)c1ccccc1 (stereo not drawn) | 0.0 | 102 | -4 | i | 1 | -3 | 75 |
| CC1=NCCN1S(=O)(=O)c1ccc(Br)c(C)c1 | -1.3 | 102 | -15 | i | 0.9 | -43 | 123 |
| CS(=O)(=O)N1CCN(c2ccc([N+](=O)[O-])cc2F)CC1 | / | 100 | -4 | i | 0.94 | 33 | 65 |

Printed as active in PKD1 inh, of those listed so far:
mol | GALR2 ag | RGS16-Gao | PKD1 inh | HSV replic up | HSV replic up primary fold
COC(=O)c1c(NC(=O)C2C3CCC(C3)C2C(=O)O)sc2c1CCCCC2 (stereo not drawn) | / | 98 | 79* | i | 1

Going on with the list.
SMILES	GALR2 ag	RGS16-Gao	PKD1 inh	HSV replic up	HSV replic up primary fold	INS promoter inh	INS promoter inh cell count
Cc1ccc(CN2CCSc3ccc(C(=O)NC4CCN(Cc5ccccc5)CC4)cc32)cc1	/	102	-3	i	0.79	-93	120
CCCOP(=O)(OCCC)C1(Nc2ccc(C)cc2)CCCCC1	-0.1	95	-5	/	/	36	50
OC(COc1ccccc1)CSc1ncn[nH]1 (stereo not drawn)	-2.0	104	-1	i	0.97	-32	46
COc1ccc(N2CC(C(=O)Nc3ccc4c(c3)OCO4)CC2=O)cc1 (stereo not drawn)	-0.5	92	-10	i	1	/	/
COC(=O)c1ccc(NC(=S)N2CCN(Cc3ccc(Cl)cc3)CC2)cc1	-0.2	103	-6	i	0.65	17	108
COc1cc(-c2cc(-c3ccccc3)nc(SCC(=O)Nc3nccs3)c2C#N)cc(OC)c1OC	-1.0	101	4	i	0.83	/	/
O=[N+]([O-])c1cc(S(=O)(=O)N2CCCC2)ccc1NN=C1CCCCC1	-1.5	101	-3	i	0.85	25	130
COc1cccc(N2CCN(CC(=O)c3c(C)[nH]c4ccccc34)CC2)c1	-0.5	15*	-5	i	0.86	-17	170

Compound activity from PubChem BioAssay.
